LASV entry inh – inhibitors of Lassa virus binding or cell entry; Lassa virus pseudotype entry inhibition, cell reporter; control for the full effect not named in the record; AID 540256; Potency, µM (highest dose often 37.9 µM), for inactives: top-dose activity change, negative = inhibition, hits mostly inhibitors; actives 1.2% (n = 300,000); active means well fitted inhibition curve with a large enough effect; inconclusive means small, poorly fitted or top-dose-only effect, or effect the other way; inactive means flat fitted curve, though single readings scatter; tested in HEK293 cells; further: on the % scale 0 is the no-effect control and ±100 the full control effect; nearly all actives have a fitted effect of over 50% in size; luciferase read-out
SARS PLP yeast – blocks SARS-CoV papain-like protease in a yeast assay | Potency, µM (highest dose often 32.9 µM), for inactives: at the top dose activity, positive = growth rescue | actives 0.19% (n = 330,000) | S. cerevisiae expressing SARS-CoV PLpro, growth rescue; control for the full effect not named in the record; further: 0% is about no effect; nearly all actives have a fitted effect of over 55% in size; growth read by luminescence after 48 h
MARV entry inh – Marburg virus entry inhibition; AID 540276; Potency, µM (highest dose often 37.8 µM), for inactives: at the highest dose activity change, negative = inhibition, hits mostly inhibitors; actives 1.8% (n = 300,000); Marburg virus pseudotyped entry inhibition, cell reporter; control for the full effect not named in the record; about a third of the inactives were read at about 46 µM; active = well fitted inhibition curve with a large enough effect; inconclusive = small, poorly fitted or top-dose-only effect, or effect the other way; inactive = flat fitted curve, though single readings scatter; tested in HEK293 cells; about a fifth of its hits are not listed in these tables; further: on the % scale 0 is the no-effect control and ±100 the full control effect; luciferase read-out
Cruzain Triton – cruzain (T. cruzi) inhibition with detergent; P25779; AID 1478; actives 0.43% (n = 200,000); purified cruzain, Z-FR-AMC fluorescence, 0.01% Triton; Potency, µM, without a hit: max response, negative = inhibition, actives largely listed as inhibitors; active means well fitted curve in the direction sought with a large enough effect; inconclusive means small, poorly fitted or top-dose-only effect, or another doubt; inactive means no such curve, though single readings can be large; an effect the other way counts as inactive or inconclusive;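 further: plate controls were neutral wells for no effect and buffer without enzyme for full effect; nearly all actives have a fitted effect of over 40% in size; top concentration of the series not given in the record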
Target sequence (P25779 123-467 limits assumed): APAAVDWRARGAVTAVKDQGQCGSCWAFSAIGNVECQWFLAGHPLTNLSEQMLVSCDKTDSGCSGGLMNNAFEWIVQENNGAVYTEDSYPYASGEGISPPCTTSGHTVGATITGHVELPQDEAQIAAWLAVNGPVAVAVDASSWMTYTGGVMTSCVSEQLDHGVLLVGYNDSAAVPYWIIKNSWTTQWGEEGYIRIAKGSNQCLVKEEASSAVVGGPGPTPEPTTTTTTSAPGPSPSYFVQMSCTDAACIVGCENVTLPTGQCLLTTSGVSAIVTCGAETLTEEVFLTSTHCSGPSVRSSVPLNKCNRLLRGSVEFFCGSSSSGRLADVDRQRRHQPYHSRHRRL
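Detergent-containing run (0.01% Triton X-100) in acetate buffer pH 5.5 with 5 mM DTT: enzyme at 1.5 nM final, 15 min compound preincubation at room temperature, then 2 uM Z-FR-AMC substrate. Activity taken as 60 s fluorescence increase at 360/450 nm.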
NS1 function inh – blocks influenza NS1 protein function | S. cerevisiae slowed by influenza A NS1, growth recovery by OD600 | Potency, µM (highest dose often 46.1 µM), for the others: at the highest dose activity, positive = more growth | actives 0.4% (n = 270,000) | AID 2326; further: actives are rising curves; nearly all actives have a fitted effect of over 50% in size
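OD600 was taken as the measure of yeast growth restored by compound in an NS1-expressing S. cerevisiae strain. Cells had been washed out of glucose medium and diluted 1:100 into galactose -URA medium, pH 6.0.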
RE007 growth inh – less growth of the S. pombe RE007 Vpr strain; S. pombe RE007 Vpr strain, BacTiter-Glo ATP luminescence, 24 h; control for the full effect not named in the record; Potency, µM (series often up to 92.2 µM), without a hit: at the highest dose activity change, negative = less growth; actives 0.21% (n = 360,000); AID 651644; active = well fitted falling curve with a large enough effect; inconclusive = small, poorly fitted or top-dose-only effect; inactive = no such curve, though single readings can be large or run the other way;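 further: on the % scale 0 is the no-effect control and ±100 the full control effect; nearly all actives have a fitted effect of over 50% in size; the assay follows cell death caused by Vpr and the record does not say whether a fall means rescue or toxicity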
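Fission yeast RE007 carrying one integrated HIV-1 vpr copy, seeded at OD 0.01 in PMG+AL medium with 23 nL pinned compound. Grown 24 h at 30 degrees; viability read by BacTiter-Glo luminescence after 5 min.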
2A StopGo – lowers the luciferase signal of an FMDV 2A StopGo reporter. human cells with a luciferase reporter of 2A StopGo recoding; control for the full effect not named in the record. Potency, µM (titrated, usually from 57.9 µM), for the others: at the top dose signal change, negative = less light. actives 1.2% (n = 410,000); active = well fitted falling curve with a large enough effect; inconclusive = small, poorly fitted or top-dose-only effect; inactive = no such curve, though single readings can be large or run the other way; tested in HEK293T cells; further: on the % scale 0 is the no-effect control and ±100 the full control effect; nearly all actives have a fitted effect of over 45% in size; luciferase light after 4 h
Cruzain noTriton – inhibitors of Trypanosoma cruzi cruzain without detergent. P25779. purified cruzain, Z-FR-AMC fluorescence, no detergent. Potency, µM, for inactives: max response, negative = inhibition, hits mostly inhibitors. actives 2.3% (n = 200,000). AID 1476; active means well fitted curve in the direction sought with a large enough effect; inconclusive means small, poorly fitted or top-dose-only effect, or another doubt; inactive means no such curve, though single readings can be large; an effect the other way counts as inactive or inconclusive;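 further: plate controls were enzyme without inhibitor for no effect and buffer without enzyme for full effect; nearly all actives have a fitted effect of over 40% in size; top concentration of the series not given in the record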
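Purified cruzain at 1.5 nM, pre-incubated 15 min with compound at room temperature in 100 mM sodium acetate pH 5.5, 5 mM DTT, 0.00005% Triton X-100. Reaction started with 2 uM Z-FR-AMC; AMC fluorescence increase over 60 s gives rate.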
* marks the source's active call; other numbers are inactive results; [ ] = remark or other dose. Unless noted, the call rests on the fitted dose curve; in most records, active means well fitted rising curve with a large enough effect; inconclusive means small, poorly fitted or top-dose-only effect; inactive means no such curve, though single readings can be large or run the other way. Potency means the concentration at half of the fitted maximal effect. Rows are unselected; overall some 4.6% were active at least once.

For CC(C)(O)C#Cc1ccc(C(=O)N2CCN(c3ccc([N+](=O)[O-])cc3)CC2)cc1 the results were LASV entry inh inconclusive, SARS PLP yeast -2%, MARV entry inh inconclusive, RE007 growth inh 9% and 2A StopGo inconclusive.
CC(C)NC(=S)N1CCCN(c2ncccc2[N+](=O)[O-])CC1 was read as SARS PLP yeast 0%, NS1 function inh -1%, RE007 growth inh -23% and 2A StopGo -3%.
`c1coc(CNc2nc3ccccc3s2)c1` gave LASV entry inh inconclusive, SARS PLP yeast 2%, MARV entry inh inconclusive, NS1 function inh 1%, RE007 growth inh -16% and 2A StopGo 85%[activator].
Screening COc1ccc2sc(NC(C)=O)nc2c1 returned LASV entry inh inconclusive, SARS PLP yeast 2%, MARV entry inh inconclusive, Cruzain Triton 3.1%, NS1 function inh -2%, RE007 growth inh 2%, 2A StopGo 0% and Cruzain noTriton -2%.
Screening CCOc1ccc2nc(Cl)c(CN(C(=O)c3cnccn3)C3CCCC3)cc2c1 returned LASV entry inh 14%, SARS PLP yeast -2%, MARV entry inh 11%[46.1 µM], RE007 growth inh 7% and 2A StopGo inconclusive.
`N#Cc1ccc(OCc2nnc3n2CCCCC3)cc1` gave SARS PLP yeast -2%, NS1 function inh 5%, RE007 growth inh 0% and 2A StopGo -5%.
S=C(NCC1(c2ccccc2)CCCC1)Nc1ccccc1 was read as SARS PLP yeast 1%, NS1 function inh -32%, RE007 growth inh -13% and 2A StopGo 0%.
C=CCn1c(C)cc(C(=O)CSc2nnc(NC(C)C)s2)c1C was read as LASV entry inh inconclusive, SARS PLP yeast -18%, MARV entry inh inconclusive, Cruzain Triton -1.5%, NS1 function inh 5%, RE007 growth inh 20%, 2A StopGo 27% and Cruzain noTriton -3%.
CCOc1ccc(-c2nc(SCC(=O)c3ccccc3)n[nH]2)cc1 was read as LASV entry inh inconclusive, MARV entry inh -3%[46.1 µM], Cruzain Triton -4.6%, 2A StopGo 4% and Cruzain noTriton inconclusive.
O=c1[nH]c(C2CCN(S(=O)(=O)Cc3ccccc3)CC2)nc2c1nnn2Cc1cccc(Cl)c1 was read as LASV entry inh -8%[46.1 µM], SARS PLP yeast 0%, MARV entry inh -13%[46.1 µM], NS1 function inh 11%, RE007 growth inh 7% and 2A StopGo 2%.
Cn1c(=O)c2c(c3ccccc31)OC(=O)CC2c1ccc(C(F)(F)F)cc1 (stereo not given) was read as LASV entry inh 4%[46.1 µM], MARV entry inh -2%[46.1 µM], Cruzain Triton -7.9%, 2A StopGo -21% and Cruzain noTriton 26%.
For Cn1c(N)c(C(=O)c2cc(-c3ccccn3)nc3ccccc23)c(=O)[nH]c1=O the results were LASV entry inh 16%, SARS PLP yeast 3%, MARV entry inh -1%, Cruzain Triton 1.3%, NS1 function inh -9%, RE007 growth inh -14%, 2A StopGo -19% and Cruzain noTriton -3%.
`c1ccn2c(SCc3ccc4c(c3)OCO4)nnc2c1` gave LASV entry inh 20%, SARS PLP yeast 3%, MARV entry inh inconclusive, Cruzain Triton 0.1%, NS1 function inh -4%, RE007 growth inh 6%, 2A StopGo 61%[activator] and Cruzain noTriton -7%.
Screening COc1ccc(C(C)=O)cc1CSc1ccc2c(c1)OCCO2 returned LASV entry inh -10%[46.1 µM], SARS PLP yeast 0%, MARV entry inh -18%[46.1 µM], NS1 function inh -21%, RE007 growth inh 4% and 2A StopGo -21%.
`O=S(=O)(NCC1CCCO1)c1ccc(Cl)cc1` (stereo not given) gave SARS PLP yeast 1%, NS1 function inh 7%, RE007 growth inh -12% and 2A StopGo 50%[activator].
`CC(Sc1nnnn1C)C(=O)Nc1ccc2c(c1)OCCO2` (stereo not given) gave LASV entry inh inconclusive, SARS PLP yeast 1%, MARV entry inh 1%[46.1 µM], RE007 growth inh -7% and 2A StopGo 57%[activator].
Screening CCNC(=O)c1nc[nH]c1C(=O)NCC returned LASV entry inh inconclusive, SARS PLP yeast 0%, MARV entry inh -2%, Cruzain Triton 0.9%, NS1 function inh 1%, RE007 growth inh 12%, 2A StopGo -19% and Cruzain noTriton -4%.
`O=C(NCc1ccccc1)c1ccc2c(c1)C(=O)N(Cc1cccnc1)C2=O` gave LASV entry inh 17%[46.1 µM], SARS PLP yeast 15%, MARV entry inh 15%[46.1 µM], NS1 function inh -7%, RE007 growth inh 4% and 2A StopGo 28%.
For Cc1ccsc1C(=O)OCC(=O)NC1CC1 the results were LASV entry inh inconclusive, SARS PLP yeast -1%, MARV entry inh 9%, RE007 growth inh -8% and 2A StopGo 0%.
For Cc1ccc(/C=N/n2nnnc2N)cc1 the results were LASV entry inh 4%[46.1 µM], MARV entry inh inconclusive, RE007 growth inh -11% and 2A StopGo 40%[activator].
COc1ccccc1OC(C)C(=O)N(Cc1ccco1)C1CCS(=O)(=O)C1 (stereo not given) was read as SARS PLP yeast 2%, NS1 function inh -8%, RE007 growth inh 1% and 2A StopGo 1%.
`COc1ccc(/C=N/N2CCN(C3c4ccccc4-c4ccccc43)CC2)cc1O` gave LASV entry inh -16%, SARS PLP yeast -11%, MARV entry inh inconclusive, Cruzain Triton -4.4%, NS1 function inh 18%, RE007 growth inh 13%, 2A StopGo inconclusive and Cruzain noTriton 15%.
`Cc1cc(F)ccc1S(=O)(=O)N1CCCOC1CNC(=O)C(=O)NCc1cccnc1` (stereo not given) gave LASV entry inh -1%, SARS PLP yeast -5%, MARV entry inh 1%, NS1 function inh 7%, RE007 growth inh 9% and 2A StopGo -12%.
Screening CCC(C)NCCOCCOc1ccc(Br)cc1C (stereo not given) returned LASV entry inh inconclusive, SARS PLP yeast -21%, MARV entry inh inconclusive, Cruzain Triton -3.6%, NS1 function inh -2%, RE007 growth inh -1%, 2A StopGo -22% and Cruzain noTriton -17%.
`Cc1cc(=O)[nH]c(SCc2cc(Cl)ccc2OC(F)F)n1` gave LASV entry inh -3%, SARS PLP yeast 3%, MARV entry inh -27%, Cruzain Triton -0.3%, NS1 function inh 3.2µM*, RE007 growth inh -8%, 2A StopGo -12% and Cruzain noTriton -21%.
`O=C(CCN1CCOCC1)c1ccccc1` gave LASV entry inh 6%, SARS PLP yeast -1%, MARV entry inh inconclusive, Cruzain Triton -3.7%, NS1 function inh -1%, RE007 growth inh -28% and Cruzain noTriton -2%.
For Cc1cc(C)n(-c2ccc(C(=O)Oc3ccc4c(c3)OCO4)cc2)n1 the results were LASV entry inh 12%, SARS PLP yeast -9%, MARV entry inh -2%, Cruzain Triton -0.9%, NS1 function inh -65%, RE007 growth inh 10%, 2A StopGo -6% and Cruzain noTriton -5%.
C=CCNC(=O)C12CC3(C)CC(C)(CC(C)(C3)C1)C2 was read as LASV entry inh 1%, SARS PLP yeast -12%, MARV entry inh -13%, Cruzain Triton -1.8%, NS1 function inh -54%, RE007 growth inh -2%, 2A StopGo -7% and Cruzain noTriton -4%.
Screening Cc1ccc(OC(C)C(=O)NCC2(N3CCOCC3)CCCCC2)cc1C (stereo not given) returned LASV entry inh 16%[46.1 µM], MARV entry inh -24%[46.1 µM], Cruzain Triton 3.0%, 2A StopGo 12% and Cruzain noTriton 3%.
Screening Oc1ccc(Cl)cc1C1=NNC(c2ccc(Cl)cc2)C1 (stereo not given) returned LASV entry inh -27%, SARS PLP yeast -99%, MARV entry inh 7%, Cruzain Triton -9.6%, NS1 function inh -52%, RE007 growth inh -8%, 2A StopGo 14% and Cruzain noTriton inconclusive.
`Cc1ccc(S(=O)(=O)NC(=NC2CCCCC2)c2ccccc2)cc1` gave LASV entry inh inconclusive, SARS PLP yeast -3%, MARV entry inh inconclusive, NS1 function inh 6%, RE007 growth inh -10% and 2A StopGo 21%.
COc1ccccc1CNC(=O)CCCC(=O)n1nc(C)c2ccccc21 was read as LASV entry inh 1%[46.1 µM], SARS PLP yeast -14%, MARV entry inh 14%[46.1 µM], NS1 function inh -34%, RE007 growth inh -3% and 2A StopGo -10%.
`O=C(NCCOc1ccc(Cl)cc1)C1CCCCC1` gave LASV entry inh 4%[46.1 µM], SARS PLP yeast 2%, MARV entry inh inconclusive, RE007 growth inh -8% and 2A StopGo -11%.
For Cc1nn(-c2ccccc2)c(Oc2ccc(F)cc2)c1/C=N/n1cnnc1 the results were LASV entry inh -14%, SARS PLP yeast -3%, MARV entry inh 0%, Cruzain Triton 4.8%, NS1 function inh -8%, RE007 growth inh 13%, 2A StopGo -7% and Cruzain noTriton 9%.
Screening CCN(CC)C(=O)C1c2ccccc2Oc2ccccc21 returned LASV entry inh 13%[46.1 µM], SARS PLP yeast -1%, MARV entry inh inconclusive, NS1 function inh 13%, RE007 growth inh 35% and 2A StopGo -18%.
`CCOC(=O)C(C(=O)NCCCN1CCOCC1)C1CCCCC1` (stereo not given) gave LASV entry inh 10%, SARS PLP yeast 12%, MARV entry inh -3%, Cruzain Triton -4.9%, NS1 function inh 8%, RE007 growth inh -3%, 2A StopGo -1% and Cruzain noTriton -12%.
`O=c1[nH][nH]c(C(F)(F)F)c1C=NCc1ccc(Cl)cc1` gave LASV entry inh -22%, SARS PLP yeast 9%, MARV entry inh -3%, Cruzain Triton -2.6%, NS1 function inh -7%, RE007 growth inh 11%, 2A StopGo -29% and Cruzain noTriton -2%.
N#CCC(=O)Nc1ccc(C(=O)OCC(=O)N(C2CCCCC2)C2CCCCC2)cc1 was read as LASV entry inh inconclusive, SARS PLP yeast -3%, MARV entry inh -20%[46.1 µM], NS1 function inh inconclusive, RE007 growth inh 1% and 2A StopGo -29%.
For CCOn1c(=O)c[n+]([O-])c2ccccc21 the results were LASV entry inh 1%[46.1 µM], SARS PLP yeast 1%, MARV entry inh inconclusive, RE007 growth inh 10% and 2A StopGo 39%[activator].
O=C1NC(=O)/C(=C/c2ccc(-c3cc(C(=O)O)ccc3Cl)o2)S1 was read as SARS PLP yeast 2%, NS1 function inh 4%, RE007 growth inh 9% and 2A StopGo -16%.
Screening CCOC(=O)c1cnc(N2CCN(C(=O)OCC)CC2)[nH]c1=O returned LASV entry inh 15%[46.1 µM], SARS PLP yeast -2%, MARV entry inh -24%[46.1 µM], RE007 growth inh 9% and 2A StopGo -8%.

Source: PubChem (National Center for Advancing Translational Sciences (NCATS))
